Bioassay records from PubChem.
Vaccinia stage = blocks a specific stage of Vaccinia orthopoxvirus infection, primary screen, cell-based, single point; actives 0.01% (n = 89,000); Vaccinia-infected cells, mCherry/Venus stage reporter fluorescence; stronger effect = lower value; some inactives read as strong as hits; activity change (mCherry), % (no concentration beside the values);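 active means mCherry past -33% and 40 or more points under the early reporter, replicates agreeing; inconclusive means past -33% without that gap or agreement; tested in A549 cells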;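 further: scaled between vehicle wells and reference inhibitor wells; 23 nL library stock went into each well; one replicate is shown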
Vaccinia stage Venus = recorded beside Vaccinia stage, whose call it bears; activity change (Venus), %; measured here: Venus reporter, other viral stage;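 negative = less Venus signal; first of two replicates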
The depositor's hits bear a star; ? = inconclusive; . = no result given; & = joins results of further samples. Some of the compounds tested, so the mix of outcomes need not match the whole.

(1) CO[C@H]1CN(C)C(=O)c2cc(NS(=O)(=O)c3ccccc3)ccc2OC[C@H](C)N(C)C[C@H]1C
(2) C[C@H](CO)N1C[C@H](C)[C@H](CN(C)C(=O)Nc2ccccc2)Oc2ncc(-c3ccc(C#N)cc3)cc2C1=O
(3) CN1C(=O)c2cc(NC(=O)c3cccs3)ccc2OC[C@@H]2O[C@@H](CC(=O)N3CCCCC3)CC[C@@H]21
(4) N#C[C@H]1[C@H](c2ccccc2C2=CCCC2)[C@@H](CO)N1C(=O)C1CC1
(5) C(=C\c1ccc(C2[C@@H]3CN(Cc4ccccn4)C[C@H]2N3)cc1)/c1ccccc1 (some centres undefined)
(6) C[C@@H]1CN([C@H](C)CO)C(=O)Cc2cc(N(C)C)ccc2O[C@H]1CN(C)Cc1ccc(C(F)(F)F)cc1
(7) C[C@@H]1CN([C@H](C)CO)C(=O)c2cc(NC(=O)Nc3ccc(F)cc3)ccc2O[C@H]1CN(C)Cc1ccc2c(c1)OCO2
(8) CC(C)NC(=O)N(C)C[C@H]1Oc2ccc(NC(=O)c3ccncc3)cc2CC(=O)N([C@@H](C)CO)C[C@@H]1C
(9) Cc1ccccc1S(=O)(=O)N1[C@@H]2CNC[C@H]1C2c1ccc(-c2ccc(C(=O)N(C)C)cc2)cc1 (some centres undefined)
(10) C[C@H](CO)N1C[C@H](C)[C@@H](CN(C)C(=O)Cc2ccccc2)OCCCC[C@H](C)Oc2ccc(NC(=O)Nc3ccc(F)cc3)cc2C1=O

Screen / compound no. | 1 | 2 | 3 | 4 | 5 | 6 | 7 | 8 | 9 | 10
Vaccinia stage | 0 | 17 | -7 | -18 | -29 | -16 | 0 | 26 | -11 | -11
Vaccinia stage Venus | 2 | 7 | 0 | -12 | -24 | 1 | 1 | 14 | -1 | -2

(11) O=C(C[C@H]1C[C@H]2c3cc(NC(=O)Nc4ccccc4)ccc3O[C@H]2[C@H](CO)O1)NCc1cccc(F)c1
(12) COc1ccc(NC(=O)N(C)C[C@@H]2OCc3ccccc3-c3c(n(C)c4ccccc34)C(=O)N([C@@H](C)CO)C[C@@H]2C)cc1
(13) CCCNC(=O)C[C@@H]1CC[C@@H]2[C@H](COc3ccc(NC(=O)c4cccs4)cc3C(=O)N2C)O1
(14) COc1ccc(NC(=O)N(C)C[C@H]2Oc3c(NS(=O)(=O)c4ccc(OC)cc4)cccc3C(=O)N([C@H](C)CO)C[C@@H]2C)cc1
(15) O=C(Cc1cccnc1)N[C@@H]1CC[C@@H](CCNS(=O)(=O)c2ccccc2Cl)O[C@@H]1CO
(16) Cc1noc(C)c1NC(=O)N(C)C[C@H]1Oc2ccc(NC(=O)NC(C)C)cc2C(=O)N([C@H](C)CO)C[C@@H]1C
(17) CCCNC(=O)C[C@@H]1CC[C@@H]2[C@H](COC[C@H](O)CN2C(=O)Nc2c(C)noc2C)O1
(18) CO[C@@H]1CN(C)C(=O)c2cc(NC(=O)Nc3cccc(F)c3)ccc2OC[C@H](C)N(C)C[C@H]1C
(19) CC(C)NC(=O)N(C)C[C@H]1OCCCC[C@@H](C)Oc2ccc(NC(=O)Nc3ccccc3)cc2C(=O)N([C@H](C)CO)C[C@@H]1C
(20) O=C(C[C@H]1CC[C@H]2[C@@H](COC[C@@H](O)CN2S(=O)(=O)c2ccccc2)O1)NCCN1CCCC1

Screen / compound no. | 11 | 12 | 13 | 14 | 15 | 16 | 17 | 18 | 19 | 20
Vaccinia stage | 11 | ? | 0 | 15 | -3 | 13 | 5 | -25 | 9 | 10
Vaccinia stage Venus | 13 | . | 2 | 16 | 1 | 13 | 5 | -18 | -4 | 6

(21) CCCNC(=O)N1CC2(CN(CC3CCOCC3)C2)c2c(n(C)c3cc(OC)ccc23)[C@H]1CO
(22) C[C@@H]1CN([C@@H](C)CO)S(=O)(=O)c2ccc(C#C[C@@H](C)O)cc2O[C@H]1CN(C)C(=O)Cc1ccccn1
(23) O=C(C1CC1)N1CC2(C1)[C@H](c1ccccc1)[C@@H](CO)N2Cc1nccs1
(24) C[C@H]1CN([C@@H](C)CO)C(=O)c2cc(-c3cccc(C#N)c3)cnc2O[C@@H]1CN(C)C(=O)C1CCCCC1
(25) N#C[C@H]1[C@@H](c2ccc(C3=CCCC3)cc2)[C@H](CO)N1C(=O)Cc1ccncc1
(26) C[C@@H]1CN([C@@H](C)CO)C(=O)c2cc(N(C)C)ccc2O[C@@H]1CN(C)Cc1ccc(C(=O)O)cc1
(27) CCO[C@H]1OC(C(=O)O)=C[C@@H](c2ccccc2)[C@@H]1CCCO
(28) CCCNC(=O)N1CC2(C1)[C@H](c1ccccc1)[C@H](CO)N2Cc1ccc(F)cc1
(29) C[C@H](CO)N1C[C@H](C)[C@@H](CN(C)S(=O)(=O)c2ccccc2)Oc2c(NS(=O)(=O)c3cn(C)cn3)cccc2C1=O
(30) O=C(NC1CCCCC1)N1CC(=O)N2[C@H](C1)[C@@H](c1ccc(-c3cccnc3)cc1)[C@@H]2CO

Screen / compound no. | 21 | 22 | 23 | 24 | 25 | 26 | 27 | 28 | 29 | 30
Vaccinia stage | 28 | 11 | 12 | 20 | 11 | 2 | 18 | -12 | 20 | 4
Vaccinia stage Venus | 16 | 7 | 8 | 9 | 8 | 3 | 0 | -9 | 18 | 11

(31) COc1ccc(S(=O)(=O)Nc2ccc3c(c2)CC(=O)N([C@H](C)CO)C[C@H](C)[C@H](CN(C)S(=O)(=O)c2c(C)noc2C)O3)cc1
(32) CCCNC(=O)[C@H]1[C@H](CO)[C@H]2Cn3c(ccc(/C=C/c4ccccc4)c3=O)[C@@H]1N2C(=O)c1ccncc1
(33) C[C@H](CO)N1C[C@H](C)[C@@H](CN(C)Cc2ccncc2)Oc2ccc(NC(=O)c3ccncc3)cc2C1=O
(34) C[C@@H]1CN([C@H](C)CO)S(=O)(=O)c2ccc(C#Cc3ccc(F)cc3)cc2O[C@H]1CN(C)C(=O)c1ccccn1
(35) OC[C@H]1[C@H](c2ccc(/C=C/c3ccccc3)cc2)[C@H]2CN(Cc3cccnc3)CCCCN21
(36) C[C@H](O)C#Cc1ccc2c(c1)O[C@@H](CN(C)Cc1ccccc1)[C@@H](C)CN([C@@H](C)CO)S2(=O)=O
(37) COC(=O)C[C@H]1C=C[C@H](NC(=O)Nc2ccc(C(F)(F)F)cc2)[C@H](CO)O1
(38) C[C@@H]1CN([C@@H](C)CO)C(=O)c2cc(NC(=O)C3CC3)ccc2O[C@@H]1CN(C)CC1CCCCC1
(39) C[C@@H]1CN([C@@H](C)CO)C(=O)c2cc(-c3cccc(C#N)c3)cnc2O[C@H]1CN(C)C(=O)C1CCOCC1
(40) C[C@H]1CCCCO[C@H](CN(C)Cc2ccc(C(=O)O)cc2)[C@@H](C)CN([C@@H](C)CO)C(=O)c2cc(NC(=O)Nc3ccc(C(F)(F)F)cc3)ccc2O1

Screen / compound no. | 31 | 32 | 33 | 34 | 35 | 36 | 37 | 38 | 39 | 40
Vaccinia stage | 0 | 4 | -3 | ? | -35 | 7 | 1 | -10 | 14 | 4
Vaccinia stage Venus | 4 | -2 | 1 | . | -28 | 4 | 14 | 2 | 10 | -4

(41) CN1C(=O)c2cc(NS(=O)(=O)c3cccc(F)c3)ccc2OC[C@H]2O[C@H](CC(=O)O)CC[C@H]21
(42) O=C(C[C@H]1CC[C@@H](NC(=O)C2CC2)[C@@H](CO)O1)NCC1CC1
(43) C[C@@H]1CN([C@@H](C)CO)C(=O)c2cc(NC(=O)Cc3cn(C)c4ccccc34)ccc2O[C@@H]1CN(C)Cc1ccc2c(c1)OCO2
(44) Cc1ccc(S(=O)(=O)Nc2ccc3c(c2)C(=O)N([C@H](C)CO)C[C@H](C)[C@@H](CN(C)C(=O)Nc2ccc4c(c2)OCO4)OCCCC[C@@H](C)O3)cc1
(45) CN(C)CC(=O)Nc1ccc2c(c1)[C@@H]1C[C@H](CC(=O)NCCN3CCCCC3)O[C@@H](CO)[C@@H]1O2
(46) O=C(Nc1ccc(F)cc1)N[C@@H]1C[C@@H]2O[C@@H](CO)CC[C@@H]2O[C@@H]1CCc1ccc(-c2ccccc2)cc1
(47) COc1ccc2c3c([nH]c2c1)[C@H](CO)N(CC1CCOCC1)CC31CN(C(=O)c2ccc(F)cc2)C1
(48) C[C@@H]1CCCCO[C@H](CN(C)Cc2ccncc2)[C@H](C)CN([C@@H](C)CO)C(=O)c2cc(NS(=O)(=O)c3ccc(F)cc3)ccc2O1
(49) C[C@@H]1CN([C@H](C)CO)C(=O)c2cc(-c3ccccc3)cnc2O[C@H]1CN(C)Cc1ccccc1
(50) C[C@@H]1CN([C@H](C)CO)C(=O)Cc2cc(NC(=O)CCCCCC(=O)Nc3ccccc3N)ccc2O[C@H]1CN(C)Cc1ccc2c(c1)OCO2

Screen / compound no. | 41 | 42 | 43 | 44 | 45 | 46 | 47 | 48 | 49 | 50
Vaccinia stage | 15 | -5 | -30 | -6 | 0 | ? | 17 | -9 | -27 | 20
Vaccinia stage Venus | 9 | 0 | -19 | -10 | -2 | . | 13 | -10 | -15 | 15

(51) C/C=C/c1ccc([C@H]2[C@@H](CO)N(C(=O)CC)[C@H]2CNC(=O)CC)cc1
(52) Cn1cnc(S(=O)(=O)N2CCCCN3[C@H](CO)[C@@H](c4ccc(-c5ccccc5F)cc4)[C@H]3C2)c1
(53) COCC#Cc1ccc2c(c1)O[C@H](CN(C)Cc1ccccc1)[C@@H](C)CN([C@@H](C)CO)S2(=O)=O
(54) COc1ccc(S(=O)(=O)N(C)C[C@@H]2OCCCC[C@H](C)Oc3ccc(NC(=O)c4ccncc4)cc3C(=O)N([C@H](C)CO)C[C@@H]2C)cc1
(55) CC(C)CC#Cc1ccc2c(c1)O[C@@H](CN(C)C(=O)C1CCOCC1)[C@@H](C)CN([C@H](C)CO)S2(=O)=O
(56) Cc1ccc(S(=O)(=O)NCC[C@H]2CC[C@H](NC(=O)Nc3ccccc3F)[C@@H](CO)O2)cc1
(57) CCNC(=O)C[C@H]1CC[C@H]2[C@@H](COc3ccc(NC(=O)Nc4cccc(F)c4)cc3C(=O)N2C)O1
(58) CCS(=O)(=O)N1CCCCN2[C@H](C1)[C@H](c1ccc(-c3ccccc3)cc1)[C@@H]2CO
(59) C[C@@H]1CCCCO[C@H](CN(C)Cc2ccccc2)[C@@H](C)CN([C@H](C)CO)C(=O)c2cc(NC(=O)CCCCCC(=O)Nc3ccccc3N)ccc2O1
(60) C[C@H](CO)N1C[C@H](C)[C@@H](CN(C)S(=O)(=O)c2cccc(F)c2)OCc2cn(nn2)CCCC1=O

Screen / compound no. | 51 | 52 | 53 | 54 | 55 | 56 | 57 | 58 | 59 | 60
Vaccinia stage | -5 | -1 | -22 | -9 | -1 | -2 | 12 | 7 | -6 | 6
Vaccinia stage Venus | -2 | -10 | -13 | -17 | -5 | -3 | 7 | 8 | -3 | 7

Record cards (already shown).
COc1ccc(S(=O)(=O)Nc2ccc3c(c2)CC(=O)N([C@H](C)CO)C[C@H](C)[C@H](CN(C)S(=O)(=O)c2c(C)noc2C)O3)cc1 is listed with Vaccinia stage = 0; Vaccinia stage Venus = 4
C[C@@H]1CN([C@@H](C)CO)S(=O)(=O)c2ccc(C#C[C@@H](C)O)cc2O[C@H]1CN(C)C(=O)Cc1ccccn1 is listed with Vaccinia stage = 11; Vaccinia stage Venus = 7

Next section
(61) O=C(c1ccc(F)cc1)N(CC1CCC1)C[C@H]1N[C@@H](CO)[C@H]1c1ccccc1
(62) COCC(=O)Nc1ccc2c(c1)C(=O)N(C)C[C@H](OC)[C@H](C)CN(C(=O)c1cnccn1)[C@@H](C)CO2
(63) O=C(C[C@@H]1C=C[C@H](NC(=O)c2ccc3c(c2)OCO3)[C@H](CO)O1)NCc1ccc(Oc2ccccc2)cc1
(64) CC(=O)N(C)C[C@@H]1Oc2cc(C#CC3CCCC3)ccc2S(=O)(=O)N([C@H](C)CO)C[C@@H]1C
(65) C[C@@H]1CN([C@H](C)CO)C(=O)c2cc(NC(=O)Nc3ccc4c(c3)OCO4)ccc2O[C@@H](C)CCCCO[C@@H]1CN(C)S(=O)(=O)c1ccc(F)cc1
(66) C[C@@H]1CN([C@H](C)CO)C(=O)c2cccc(N(C)C)c2O[C@H]1CN(C)Cc1ccc(C(=O)Nc2ccccc2N)cc1
(67) C[C@@H]1CN([C@H](C)CO)S(=O)(=O)c2ccc(C3=CCCC3)cc2O[C@@H]1CN(C)C
(68) COc1ccc(NC(=O)N[C@@H]2CC[C@H](CC(=O)NCc3ccccn3)O[C@H]2CO)cc1
(69) COCC(=O)N(C)C[C@@H]1Oc2cc(-c3ccc(F)cc3)ccc2S(=O)(=O)N([C@H](C)CO)C[C@H]1C
(70) CC(C)NC(=O)N(C)C[C@H]1Oc2cc(C#Cc3ccccn3)ccc2S(=O)(=O)N([C@@H](C)CO)C[C@H]1C
(71) O=C1CNC[C@H]2[C@H](c3ccc(C#CC4CCCC4)cc3)[C@H](CO)N12
(72) COc1ccc(NC(=O)Nc2ccc3c(c2)C(=O)N([C@@H](C)CO)C[C@H](C)[C@@H](CN(C)C(=O)Cc2ccccc2)OCCCC[C@@H](C)O3)cc1
(73) COc1ccccc1CNC(=O)C[C@H]1C[C@H]2c3cc(NC(=O)NC4CCCC4)ccc3O[C@H]2[C@H](CO)O1

Screen / compound no. | 61 | 62 | 63 | 64 | 65 | 66 | 67 | 68 | 69 | 70 | 71 | 72 | 73
Vaccinia stage | -11 | -3 | -20 | -16 | 17 | -20 | -26 | 8 | 15&11 | 5 | 5 | -18 | 10
Vaccinia stage Venus | -1 | -2 | -10 | -12 | 5 | -10 | -21 | 8 | 13&20 | 6 | 7 | -14 | -1
